Rce1 inh – blocks yeast Ras-converting enzyme; Q03530; yeast membranes, quenched prenylated peptide cleavage fluorescence; calls only; 290,000 compounds, 0.27% hits;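 active = fall in fluorescence gain of 50% or more versus controls, with final raw signal at or below 3038400; inconclusive = same 50% fall but final raw signal above 3038400; inactive = fall in fluorescence gain under 50%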;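 note: plate controls were neutral control wells for no effect and wells lacking membranes for full effect; tested at 10 µM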
Target sequence (Q03530 whole entry, looked up): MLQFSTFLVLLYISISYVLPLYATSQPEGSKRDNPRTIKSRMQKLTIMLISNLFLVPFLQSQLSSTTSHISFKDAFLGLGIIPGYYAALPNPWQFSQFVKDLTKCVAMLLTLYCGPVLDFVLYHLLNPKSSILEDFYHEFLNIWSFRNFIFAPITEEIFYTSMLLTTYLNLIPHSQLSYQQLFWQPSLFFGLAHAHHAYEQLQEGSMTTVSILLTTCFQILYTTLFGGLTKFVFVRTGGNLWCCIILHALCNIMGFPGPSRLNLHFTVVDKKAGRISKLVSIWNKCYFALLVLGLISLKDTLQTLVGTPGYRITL
eIF4H FP inh – inhibitors of RNA binding by human eIF4H. eIF4H fluorescence polarization binding assay. inhibition, % at 35 µM. 290,000 compounds, 0.94% hits;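 active = 50% or more with normal probe brightness, or confirmed in later tests; inconclusive = above 50% with abnormal brightness, or retests that disagree; inactive = below 50% or failed in later tests; about a fifth of its hits are not listed in these tables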;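 note: calls also rest on retests at 20 µM and on dose response follow-up; 0% = protein and probe with vehicle and 100% = probe without protein; strong numbers were not always called active; many hits fall short of the cut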
CSC inhib – blocks cancer stem cells; cancer stem cell-like cells viability, luminescence; inhibition, % at 7.5 µM; 300,000 compounds, 1.1% hits;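 active = mean at 75% or more and at least half the replicates too; inconclusive = mean and replicates disagree; tested in HMLE shEcad cells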;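 note: 0% = median of negative and 100% = median of positive control wells; the first replicate is given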
Yeast UUG start – alters start codon recognition fidelity in yeast; S. cerevisiae UUG-firefly luciferase reporter, luminescence/redox ratio; activity score, % at 18.7 µM; 350,000 compounds, 0.13% hits;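 active = replicate mean at a twofold rise or more, about +100% in these data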;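 note: firefly luciferase made from a UUG start codon reports start codon fidelity; reporter light over untreated wells divided by growth signal over untreated wells; some hits fall short of that in this replicate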
HIV Env fusion – HIV envelope-mediated fusion inhibition | HeLa-JRFL Env/CEM21 cell fusion, luciferase | inhibition, % at 12.3 µM | 360,000 compounds, 1.1% hits | AID 651610;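 active = mean replicate inhibition score of at least 50 and every replicate individually at or above 50; inconclusive = only one of the two criteria met; inactive = mean below 50 and not all replicates reaching 50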;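 note: 0% = plate neutral controls and 100% = maraviroc near 300 nM; one replicate is shown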
MT1-MMP act inh – inhibitors of human MT1-MMP activation. GFP/RFP ratio change, % at 20 µM. 360,000 compounds, 0.061% hits. HT1080 RFP-PRO-GFP cells, GFP/RFP ratio fluorescence, overnight; percent of plate control window, DMSO zero;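 active = GFP/RFP ratio change of at least 30% with cell ATP level not reduced by more than half and red fluorescence within 50% of control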; note: strong numbers were not always called active
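Assay system: HT1080 RFP-PRO-GFP cells | Dosing: 20 µM single dose, 1% DMSO | Incubation: Cells overnight before dosing, compound overnight, 37 °C, 5% CO2 | Evaluation: GFP/RFP fluorescence ratio | Control set: DMSO-only wells and HT1080 RFP-L50D-GFP cell wells as references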
PABP polyA inh – PABP-poly(A) binding inhibition. PABP-poly(A) RNA binding, fluorescence polarization. inhibition, % at 35 µM. 290,000 compounds, 1% hits;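 active = 50% or more with normal probe brightness, or confirmed in later tests; inconclusive = above 50% with abnormal brightness, or retests that disagree; inactive = below 50% or failed in later tests; about a fifth of its hits are not listed in these tables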;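 note: calls also rest on retests at 20 µM and on dose response follow-up; controls were probe without protein and protein plus probe with vehicle; some compounds called inactive have numbers as strong as hits; many hits fall short of the cut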
eIF4H FP inh retest – second read-out of eIF4H FP inh, no call of its own (marks repeat the call); inhibition, %; compound at 20 µM; confirmation average;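 mean of two retest wells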
PABP polyA inh retest – further read-out of PABP polyA inh, marked with its call; inhibition, %; compound at 20 µM; confirmation repeats;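 mean of two retest wells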
MT1-MMP act inh RFP – also measured in MT1-MMP act inh; calls as there; RFP signal change, %; measured here: RFP expression control read;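 0 = vehicle wells; hits needed this value within 50% of zero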
* hit, by the source's call; i = inactive; ? = inconclusive; nt = no result given; & = joins results of further samples. This is a subset. The share of hits here may be higher or lower than overall.

SMILES	Rce1 inh	eIF4H FP inh	CSC inhib	Yeast UUG start	HIV Env fusion	MT1-MMP act inh	MT1-MMP act inh RFP	PABP polyA inh	others
CC1(C)NC(=O)N(CCC(=O)Nc2cc(C(F)(F)F)ccc2Cl)C1=O	nt	nt	-15	-8	-25	8	3	nt
CCc1c(C)nc2c(-c3ccccc3OC)c(C)[nH]n2c1=O	nt	-10	-11	-16	0	-2	-1	35
CN(C(=O)CSC1=NCCS1)c1ccccc1	i	13	-7	-15	nt	3	3	6
COc1ccc(-c2c(C)nn(-c3ccccc3)c2N)cc1OC	i	-2	8	-10	nt	6	4	0
CCCC(=O)Nc1nn(CC(C)C)c2nc3cc(C)ccc3cc12	i	3	nt	-12	-19	-2	-6	47
CC(NCc1cccs1)C(=O)Nc1cc(Cl)cc(Cl)c1 (stereo not given)	nt	6	10	0	11	0	-2	4
CCCN(C(=O)c1cn(CC)c2nc(C)ccc2c1=O)c1c(N)n(Cc2ccccc2)c(=O)[nH]c1=O	i	4	-4	nt	-4	-1	1	7
CCCCOc1ncnc2c1[nH]c1ccc(C)cc12	nt	11	17	-11	-75	-5	-33	-10
Cc1cccc(C)c1OCc1cc(C(=O)N2CCN(c3ccc(F)cc3)CC2)no1	i	-1	nt	-15	-40	-8	-9	17
c1csc(Cn2nnnc2CN2CCN(c3nc4ccccc4s3)CC2)c1	i	6	-6	-11	14	4	-6	-8
Cc1onc(-c2ccccc2)c1C(=O)N1CCCSC1=Nc1ccccc1	i	-11	-9	-9&-11	-11&4	6&-7	3&-4	-7
CC(=O)c1cccc(NC(=O)CNC(=O)Cc2cccc3ccccc23)c1	nt	nt	-10	-17	-14	0	-3	nt
Cc1cc(NC(=O)CSc2[nH]c(=O)cc(C(F)(F)F)c2C#N)no1	nt	nt	-5	-6	0	1	6	nt
COCCNC(=O)C(c1ccc(C)o1)N(C(=O)c1snc(C(N)=O)c1N)c1cccc(C)c1 (stereo not given)	i	13	-15	-2	nt	1	-3	10
O=C(COc1ccc(Br)cc1)OCC(=O)N1CCOCC1	nt	nt	-1	-17	nt	5	0	nt
O=C(NCc1ccc2c(c1)OCO2)c1cc(-c2ccccc2Cl)on1	i	-8	6	5	-43	-5	1	-8
COc1ccc(C(NCC(=O)Nc2c(C)cccc2C)c2ccccc2)cc1 (stereo not given)	i	-6	-6	-11	7	-1	-1	12
CCOC(=O)C(C(C)=O)C(c1ccc(OCCC(C)C)cc1)C(C(C)=O)C(=O)OCC (stereo not given)	i	-3	5	-7	-40	0	-3	-6
NC(=O)CSc1nc2scc(-c3ccco3)c2c(=O)n1-c1ccccc1	i	67*	7	nt	-5	-9	10	51*
COc1ccc(S(=O)(=O)N2CCOCC2)cc1NC(=O)CN1C(=O)NC(C)(C2CC2)C1=O (stereo not given)	nt	nt	nt	4	-3	-5	-4	nt
O=S1(=O)[C@H]2C[C@@H]3C=C[C@@]2(CN1Cc1cccc(Cl)c1)O3	i	-7	-7	-4	7	3	6	10
CC(=O)Nc1ccc(Nc2nc(C)cc(C)n2)cc1	i	-11	-4	-10	9	1	6	-6
Cn1nnnc1SCC(=O)NCCCc1ccccc1	i	-8	7	-23	nt	-14	-3	6
COc1ccc(NC(=O)CN2C(=O)NC(C)(c3ccccc3)C2=O)cc1Cl (stereo not given)	i	-5	19	-3	-3	-2	3	4
O=C(NC1CCN(C(=S)NCc2ccco2)CC1)c1cccc(F)c1	i	-7	-2	nt	3	3	1	1
SMILES	Rce1 inh	eIF4H FP inh	CSC inhib	Yeast UUG start	HIV Env fusion	MT1-MMP act inh	MT1-MMP act inh RFP	PABP polyA inh	others
C=CCn1c(SC)nnc1C1COc2ccccc2O1 (stereo not given)	i	9	-8	nt	5	-2	4	3
O=C(c1cc2cc(Br)ccc2o1)N1CCN(c2ccccc2)CC1	i	-12	15	7	nt	2	-12	12
COc1ccccc1P(=O)(c1ccccc1)c1ccccc1NC(C)=O (stereo not given)	i	-6	-14	nt	-1	-1	0	-4
O=C(Oc1cccc([N+](=O)[O-])c1)C1CCN(C(=O)c2ccc(F)cc2)CC1	i	12	-3	-4	nt	-1	3	4
CCC(C)c1ccc(NC(=O)c2cccs2)cc1 (stereo not given)	i	-7	17	-28	nt	1	-2	-7
O=C(Nc1nccs1)C(NS(=O)(=O)c1ccc(Br)s1)c1ccccc1 (stereo not given)	i	-4	3	-17	nt	nt	nt	-9
O=C(Cc1ccc(-n2c(=O)[nH]c3ccsc3c2=O)cc1)N1CCN(c2ccc(Cl)cc2)CC1	i	-13	nt	9	24	4	-5	17
COc1ccc(Cl)cc1C(=O)N/N=C/c1ccc(N2CCOCC2)cc1	i	35	2	-10	2	-1	3	-11
OCCN1CCN(c2ncnc3c2ncn3[C@H]2CN(Cc3ccc(F)cc3)C[C@@H](CO)O2)CC1	nt	nt	nt	-1	?	2	7	nt
O=C(CN1CCN(CC(=O)c2ccc(Cl)cc2)CC1)c1ccc(Cl)cc1	nt	nt	nt	-6	9	-5	2	nt
O=C(Cc1cccs1)Nc1ccc(S(=O)(=O)Nc2ncccn2)cc1	nt	61*	-19	-14	nt	-4	1	10*	eIF4H FP inh retest=73*;PABP polyA inh retest=50*
CC(NC(=O)CSc1nc2c(c(C(F)(F)F)n1)CCc1ccccc1-2)c1ccccc1 (stereo not given)	nt	-12	6	-5	nt	-3	-12	-5
COC(=O)c1ccc2nc(C3CCCCC3)c3c(c2c1)CCC3	i	nt	16	-7	43	2	0	nt
COc1ccc(/C=C/C(=O)N2c3ccccc3Sc3ccc(C(F)(F)F)cc32)cc1	i	-12	15	nt	28	1	-3	-3
CC(C)(C)C(=O)/C(=C/c1ccncc1)n1cncn1	i	-1	53	nt	-8	-29	-38	6
O=C(Oc1coc(CSc2nnc(NC(=O)C3CC3)s2)cc1=O)c1c(F)cccc1F	i	32	27	-13	-11	9	5	-6
Nc1cccn2c(-c3ccc(Cl)c(Cl)c3)cnc12	i	95*	-9	nt	-155	-25	0	32*	eIF4H FP inh retest=96*;PABP polyA inh retest=104*
CCN(CC)c1ncnc2sc3c(c12)CCC3	i	-8	-11	nt	nt	-9	-10	5
COc1ccccc1NC(=O)CSC1=NCCN1	nt	3	-9	-15	-21	9	12	2
COc1ccc(S(=O)(=O)Nc2ccc(S(=O)(=O)Nc3ccc(F)cc3)cc2)cc1C	i	-11	12	3	nt	1	-5	-12
CCn1c(SCC(=O)NC2CC2)nnc1-c1ccccn1	i	-21	-10	-11	3	1	4	-13
CC(C(=O)NCCc1ccc(S(N)(=O)=O)cc1)N1C(=O)CC(C)(C)Sc2ccccc21 (stereo not given)	i	-4	-8	-3	3	-1	0	-1
Cc1ccc(N2CC(C(=O)NCCCn3ccnc3)CC2=O)cc1 (stereo not given)	i	-3	-10	-8	-34	0	1	6
CCCn1c(SCC(=O)NC2CCCC2)nnc1-c1cccnc1	i	-3	-10	-6	-5	2	2	6
Cc1ccc(-c2csc(/C(C#N)=C/Nc3ccccc3SC(F)(F)F)n2)cc1	i	-9	16	nt	3	2	0	3
SMILES	Rce1 inh	eIF4H FP inh	CSC inhib	Yeast UUG start	HIV Env fusion	MT1-MMP act inh	MT1-MMP act inh RFP	PABP polyA inh	others
CCOc1ccc(S(=O)(=O)N(C)c2ccc(OCC(=O)NCCc3ccc(OC)cc3)cc2)cc1	i	0	-4	-15	29	-2	-18	-8
COc1ccc(S(=O)(=O)N2CCC(CN3C(=O)c4cccc5cccc(c45)C3=O)CC2)cc1	i	-8	-8	nt	45	-5	-8	17
COc1cc(CNc2ncnc3c2ncn3[C@H]2CN(Cc3ccco3)C[C@@H](CO)O2)cc(OC)c1OC	nt	nt	nt	-5	0	2	5	nt
CC(C)OC(=O)CNc1n[nH]c(=S)[nH]c1=O	i	-2	nt	nt	2	4	7	-2
CCOCC(=O)Nc1ccc(OCc2ccccc2)cc1	i	-1	8	nt	-12	1	1	-7
C=CCn1c(Cc2cccs2)nnc1SCC(=O)Nc1ccc(OC)cc1	i	18	-1	-14	i	-1	-1	-1
CCOC(=O)c1cnc2ccc(Br)cc2c1NCCCN1CCOCC1	i	-6	-3	-9	-16	1	-1	-9
Cc1cc(NC(=O)CSc2n[nH]c(-c3ccc(Cl)cc3Cl)n2)no1	nt	nt	nt	-14	-11	5	-2	nt
Cc1cc(NS(=O)(=O)c2ccc(NC(=S)NC(=O)c3ccc(C(C)(C)C)cc3)cc2)no1	i	-2	8	nt	0	4	-4	-4
COc1ccc(C(CC(=O)O)NC(=O)C(c2ccccc2)c2ccccc2)cc1 (stereo not given)	i	-12	-10	-23	-9	-3	0	14
COc1cc2cc(CN(Cc3cccnc3)C(=O)Nc3ccccc3F)c(=O)[nH]c2cc1OC	i	5	-8	-16	9	1	-3	-12
CC1=C(C(=O)OC2CCCCC2)C(c2ccccc2F)NC(=O)N1 (stereo not given)	i	3	-22	-12	3	7	-1	-1
CC(C)c1nnc(NC(=O)CCC(=O)N2CCN(Cc3ccc(F)cc3)CC2)s1	i	1	1	-15	0	1	-6	-8
CCc1cc(=O)oc2cc(C)cc(OC(C)C(=O)NCc3cccnc3)c12 (stereo not given)	i	4	5	-19	-2	-2	-3	9
CC(=O)NCCNc1nc2c(-c3cccc(C(F)(F)F)c3)nnn2c2ccccc12	i	-4	-1	21	18	-2	3	7
CCCn1cc(S(=O)(=O)c2ccc(C)cc2)c(=O)c2cc(OCC)ccc21	i	-10	-11	-8	-8	-29	-1	-5
O=S1(=O)c2ccccc2N=NN1Cc1ccc(Cl)cc1	i	-14	-3	4	2	-1	1	10
O=C(O)c1ccccc1-c1cccc2nncn12	nt	nt	nt	-12	51	0	5	nt
CN1CCN(C(=O)Nc2ccccc2)CC1	i	8	-2	nt	14	4	3	-4
COc1ccccc1CNC(=O)Cn1nnc(-c2ccncc2)n1	i	-6	-7	-10	nt	-4	-2	3
CCc1cccc(CC)c1NC(=S)N1CCn2cccc2C1c1ccncc1 (stereo not given)	i	0	-7	nt	-8	-3	-2	-10
C=CCn1c(=N)n(CC(=O)OC)c2ccccc21	i	-3	-3	-16	nt	1	-3	4
CCOc1ccccc1N1CCN(CC(=O)Nc2cc(C)on2)CC1	i	5	0	nt	-8	2	5	-3
COc1ccc(N2C(=O)CCC(C(=O)N3CCCCC3)C2c2ccc(F)cc2)cc1 (stereo not given)	i	-10	-17	12	nt	2	1	-6
O=C(Nc1cccc(-n2cnnn2)c1)c1ccc(OC(F)(F)F)cc1	i	0	-14	-8	-22	6	-3	-9
SMILES	Rce1 inh	eIF4H FP inh	CSC inhib	Yeast UUG start	HIV Env fusion	MT1-MMP act inh	MT1-MMP act inh RFP	PABP polyA inh	others
O=C(NNC(=S)Nc1ccc(Cl)cc1)c1ccccc1OC(F)F	i	14	33	nt	nt	4	-4	-2
Cc1ccccc1OCCC(=O)NCCc1ccc(S(N)(=O)=O)cc1	i	-3	-11	nt	nt	-2	-7	-8
CO/N=C/c1c(-c2ccccc2)nn(C)c1Cl	i	1	-6	nt	-2	3	1	5
O=C(CN(C(=O)CNC(=O)c1ccco1)c1ccc2c(c1)OCO2)NC1CCCCC1	i	-8	-9	-15	nt	-1	1	-3
CCC(O)c1cc2c(cc1NC(=O)c1ccc(C)cc1)OCCO2 (stereo not given)	i	-8	-3	4	nt	21	58	6
COc1ccc(C(=O)NCc2cccnc2)cc1Br	i	5	nt	-10	-46	-1	4	0
COc1ccccc1CNC(=O)COC(=O)CSc1ccc(Cl)cc1	i	nt	1	nt	1	25	4	nt

Screens deposited in PubChem BioAssay by several laboratories.
